# Bioassay records deposited in PubChem by Broad Institute.
# A1 apoptosis 2 – A1 inhibitors via caspase activation, primary screen, cell-based, luminescence, HTS, two replicates. 24,000 tested, under 10 active. caspase activation, % (no concentration beside the values). AID 2465, 2010. MEF A1-2A-BIM cells, caspase-Glo luminescence, 3 h; percent of clofoctol response, DMSO zero; in the data active means caspase activation above about 5.9%;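 further: wells of about 30 µL received 50 nL stock; the first replicate is given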
#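 Evaluation: Caspase-3/7 activity from luminescence increase | Assay system: A1-2A-BIM mouse embryonic fibroblasts | Quantity: 2500 MEF cells/well | Medium: RPMI-1640 plus 10% FBS | Detection: Caspase-Glo 3/7 luminescence, 1 h at room temperature | Dosing: 50 nL compound per well, pinned | Timing: Cells settled overnight, compound exposure 3 h at 37 °C, 5% CO2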
# Starred values were filed as active, the others as inactive.
SMILES,A1 apoptosis 2
C[C@H](CO)N1C[C@H](C)[C@H](CN(C)Cc2ccncc2)OCCCC[C@H](C)Oc2ccc(NS(C)(=O)=O)cc2C1=O,-0.1
C[C@@H]1CCCCO[C@H](CN(C)Cc2ccncc2)[C@H](C)CN([C@H](C)CO)C(=O)c2cc(N(C)C)ccc2O1,-1.2
Cc1ccc(S(=O)(=O)Nc2ccc3c(c2)C(=O)N([C@H](C)CO)C[C@H](C)[C@@H](CN(C)C(=O)Nc2ccc4c(c2)OCO4)OCCCC[C@H](C)O3)cc1,0.2
C[C@@H]1CN([C@H](C)CO)C(=O)c2cc(NC(=O)Cn3cnnn3)ccc2O[C@H]1CN(C)C(=O)Nc1ccccc1,0.4
C[C@H]1CN([C@@H](C)CO)C(=O)Cc2cc(NS(=O)(=O)c3cccs3)ccc2O[C@H]1CN(C)S(=O)(=O)c1ccc(F)cc1,0.9
C[C@@H]1CN([C@@H](C)CO)C(=O)Cc2cc(NC(=O)Nc3ccccc3)ccc2O[C@@H]1CN(C)C(=O)Nc1ccc(C(F)(F)F)cc1,0.9
C[C@@H]1CN([C@@H](C)CO)C(=O)c2cc(NC(=O)C3CC3)ccc2O[C@@H]1CN(C)C(=O)Nc1cccc2ccccc12,-2.0
C[C@@H]1CN([C@H](C)CO)C(=O)c2cc(NS(C)(=O)=O)ccc2O[C@@H](C)CCCCO[C@@H]1CN(C)S(=O)(=O)c1ccccc1,0.4
C[C@H](CO)N1C[C@H](C)[C@H](CN(C)Cc2ccc3c(c2)OCO3)Oc2ccc(NC(=O)CCCN(C)C)cc2C1=O,-0.2
C[C@H](CO)N1C[C@H](C)[C@H](CN(C)CC2CCCCC2)Oc2ccc(NC(=O)Nc3ccc(C(F)(F)F)cc3)cc2CC1=O,0.2
Cc1nnc(Sc2ccc(/C=N/NC(=O)c3ccccn3)o2)n1C,-0.6
Cc1ccc(S(=O)(=O)Nc2ccc3c(c2)C(=O)N([C@H](C)CO)C[C@@H](C)[C@@H](CN(C)Cc2ccc(C(=O)O)cc2)OCCCC[C@H](C)O3)cc1,0.2
C[C@H](CO)N1C[C@H](C)[C@H](CN(C)C(=O)CCC(F)(F)F)OCCCC[C@H](C)Oc2ccc(NS(=O)(=O)c3cn(C)cn3)cc2C1=O,1.9
C[C@H](CO)N1C[C@H](C)[C@H](CN(C)Cc2ccc(C(=O)Nc3ccccc3N)cc2)Oc2c(NC(=O)Nc3ccccc3)cccc2C1=O,0.9
CC(C)NC(=O)N(C)C[C@@H]1Oc2ccc(N(C)C)cc2CC(=O)N([C@@H](C)CO)C[C@H]1C,0.5
C[C@@H]1CCCCO[C@@H](CN(C)C(=O)C2CCCCC2)[C@@H](C)CN([C@H](C)CO)C(=O)c2cc(NS(=O)(=O)c3ccc(F)cc3)ccc2O1,-0.3
COc1ccc(S(=O)(=O)N(C)C[C@@H]2Oc3c(NS(=O)(=O)c4cn(C)cn4)cccc3C(=O)N([C@H](C)CO)C[C@H]2C)cc1,0.2
C=CCOC(=O)[C@H]1[C@@H]2C(=O)O[C@@H](c3ccccc3)[C@@H](c3ccccc3)N2[C@@H](c2ccc(OCCOC(=O)[C@@H]3C[C@@H]4C(=O)N5CCC[C@H]5C(=O)N4[C@@H]3c3ccc(O)cc3)cc2)[C@]12C(=O)Nc1ccccc12,1.4
Cc1noc(C)c1NC(=O)Nc1cccc2c1O[C@H](CN(C)Cc1ccc(C(=O)Nc3ccccc3N)cc1)[C@H](C)CN([C@H](C)CO)C2=O,0.9
C[C@@H]1CN([C@@H](C)CO)C(=O)c2cc(NC(=O)Nc3ccc4c(c3)OCO4)ccc2O[C@@H]1CN(C)C(=O)Nc1ccc2c(c1)OCO2,-0.1
Cc1noc(C)c1NC(=O)Nc1ccc2c(c1)C(=O)N([C@@H](C)CO)C[C@H](C)[C@@H](CN(C)C(=O)Nc1ccc(C(F)(F)F)cc1)OCCCC[C@H](C)O2,0.0
Cc1noc(C)c1NC(=O)Nc1ccc2c(c1)CC(=O)N([C@@H](C)CO)C[C@@H](C)[C@H](CN(C)S(=O)(=O)c1ccc(F)cc1)O2,-0.1
Cc1noc(C)c1NC(=O)N(C)C[C@@H]1Oc2ncc(C#Cc3ccccc3)cc2C(=O)N([C@H](C)CO)C[C@@H]1C,0.4
Cc1noc(C)c1S(=O)(=O)N(C)C[C@@H]1OCCCC[C@@H](C)Oc2ccc(NC(=O)NC(C)C)cc2C(=O)N([C@@H](C)CO)C[C@@H]1C,0.1
Cc1noc(C)c1S(=O)(=O)N(C)C[C@@H]1Oc2ccc(NS(C)(=O)=O)cc2C(=O)N([C@@H](C)CO)C[C@@H]1C,0.1

# Copied from the list.
# `C[C@H](CO)N1C[C@H](C)[C@H](CN(C)CC2CCCCC2)Oc2ccc(NC(=O)Nc3ccc(C(F)(F)F)cc3)cc2CC1=O` in A1 apoptosis 2 has 0.2
# `C[C@@H]1CN([C@H](C)CO)C(=O)c2cc(NS(C)(=O)=O)ccc2O[C@@H](C)CCCCO[C@@H]1CN(C)S(=O)(=O)c1ccccc1` in A1 apoptosis 2 has 0.4

# Next entries follow:
SMILES,A1 apoptosis 2
C[C@@H]1CN([C@@H](C)CO)C(=O)c2cccc(NC(=O)Nc3ccc(F)cc3)c2O[C@@H]1CN(C)Cc1ccc(Cl)c(Cl)c1,-1.5
C[C@@H]1CN([C@@H](C)CO)C(=O)c2cc(NC(=O)Nc3ccc4c(c3)OCO4)ccc2O[C@@H](C)CCCCO[C@@H]1CN(C)C,-1.4
C[C@@H]1CN([C@@H](C)CO)C(=O)c2cc(NS(=O)(=O)c3ccccc3)ccc2O[C@@H]1CN(C)Cc1ccc(Oc2ccccc2)cc1,-0.7
C[C@@H]1CN([C@H](C)CO)C(=O)CCCn2cc(nn2)CO[C@@H]1CN(C)C(=O)Nc1ccc(C(C)(C)C)cc1,-0.3
C[C@@H]1CN([C@H](C)CO)C(=O)c2cc(NS(=O)(=O)c3ccc(F)cc3)ccc2O[C@@H]1CN(C)C(=O)Nc1ccc(F)cc1,-1.4
C[C@@H]1CN([C@H](C)CO)C(=O)Cc2cc(NS(=O)(=O)c3cn(C)cn3)ccc2O[C@H]1CN(C)CC1CC1,0.0
CNC[C@H]1Oc2ccc(NC(=O)Cn3cnnn3)cc2CC(=O)N([C@H](C)CO)C[C@@H]1C,-1.2
C[C@H]1CN([C@@H](C)CO)C(=O)Cc2cc(NC(=O)Nc3ccc(F)cc3)ccc2O[C@@H]1CN(C)CC1CC1,-1.1
C[C@@H]1CN([C@@H](C)CO)C(=O)c2cccc(N(C)C)c2O[C@@H]1CN(C)C(=O)Nc1ccc(C(F)(F)F)cc1,1.3
COc1ccc(S(=O)(=O)N(C)C[C@H]2OCCCC[C@H](C)Oc3ccc(NC(=O)Nc4cccc5ccccc45)cc3C(=O)N([C@@H](C)CO)C[C@H]2C)cc1,2.2
C[C@@H]1CCCCO[C@H](CN(C)C(=O)Nc2ccc3c(c2)OCO3)[C@@H](C)CN([C@@H](C)CO)C(=O)c2cc(NS(=O)(=O)c3cccs3)ccc2O1,-0.4
C[C@@H]1CCCCO[C@H](CN(C)C)[C@H](C)CN([C@@H](C)CO)C(=O)c2cc(NS(C)(=O)=O)ccc2O1,0.7
C[C@@H]1CN([C@H](C)CO)C(=O)c2cc(NS(C)(=O)=O)ccc2O[C@@H]1CN(C)S(=O)(=O)c1ccc(F)cc1,-0.5
Cc1noc(C)c1S(=O)(=O)N(C)C[C@@H]1Oc2ccc(NS(=O)(=O)c3ccc(F)cc3)cc2CC(=O)N([C@@H](C)CO)C[C@H]1C,-1.0
C[C@@H]1CN([C@H](C)CO)C(=O)c2cccc(NC(=O)Nc3ccc(C(F)(F)F)cc3)c2O[C@H]1CN(C)C(=O)NC1CCCCC1,-0.2
C[C@H](CO)N1C[C@H](C)[C@H](CN(C)Cc2ccc(-c3ccccc3)cc2)Oc2ccc(NC(=O)c3ccncc3)cc2CC1=O,0.5
C[C@@H]1CN([C@H](C)CO)C(=O)c2cc(NS(=O)(=O)c3cn(C)cn3)ccc2O[C@@H](C)CCCCO[C@@H]1CN(C)C(=O)c1ccncc1,-0.8
C[C@@H]1CN([C@@H](C)CO)C(=O)c2cc(N(C)C)ccc2O[C@@H](C)CCCCO[C@@H]1CN(C)S(=O)(=O)c1cccs1,0.9
C[C@@H]1CCCCO[C@H](CN(C)C(=O)NC2CCCCC2)[C@H](C)CN([C@@H](C)CO)C(=O)c2cc(NC(=O)C3CCCCC3)ccc2O1,-0.3
C[C@@H]1CN([C@@H](C)CO)C(=O)c2cc(NC(=O)C3CCCCC3)ccc2O[C@H]1CN(C)Cc1ccc(Oc2ccccc2)cc1,-1.1
CC(C)NC(=O)N(C)C[C@H]1OCCCC[C@@H](C)Oc2ccc(NC(=O)CCC(F)(F)F)cc2C(=O)N([C@H](C)CO)C[C@H]1C,-1.6
Cc1noc(C)c1NC(=O)Nc1ccc2c(c1)C(=O)N([C@H](C)CO)C[C@@H](C)[C@H](CN(C)Cc1ccc(C(=O)O)cc1)OCCCC[C@H](C)O2,-0.2
C[C@H]1CN([C@@H](C)CO)C(=O)c2cccc(NC(=O)c3ccncc3)c2O[C@H]1CN(C)Cc1ccc(C(=O)O)cc1,1.4
C[C@H](CO)N1C[C@H](C)[C@@H](CN(C)C)Oc2ccc(NC(=O)CCC(F)(F)F)cc2CC1=O,0.5
Cc1noc(C)c1NC(=O)N(C)C[C@H]1Oc2c(NC(=O)c3ccncc3)cccc2C(=O)N([C@H](C)CO)C[C@@H]1C,1.6

# Not a retest: an excerpt of the list.
SMILES,A1 apoptosis 2
C[C@@H]1CN([C@@H](C)CO)C(=O)c2cc(NC(=O)C3CCCCC3)ccc2O[C@H]1CN(C)Cc1ccc(Oc2ccccc2)cc1,-1.1
CC(C)NC(=O)N(C)C[C@H]1OCCCC[C@@H](C)Oc2ccc(NC(=O)CCC(F)(F)F)cc2C(=O)N([C@H](C)CO)C[C@H]1C,-1.6
Cc1noc(C)c1NC(=O)Nc1ccc2c(c1)C(=O)N([C@H](C)CO)C[C@@H](C)[C@H](CN(C)Cc1ccc(C(=O)O)cc1)OCCCC[C@H](C)O2,-0.2
C[C@H]1CN([C@@H](C)CO)C(=O)c2cccc(NC(=O)c3ccncc3)c2O[C@H]1CN(C)Cc1ccc(C(=O)O)cc1,1.4
C[C@H](CO)N1C[C@H](C)[C@@H](CN(C)C)Oc2ccc(NC(=O)CCC(F)(F)F)cc2CC1=O,0.5
Cc1noc(C)c1NC(=O)N(C)C[C@H]1Oc2c(NC(=O)c3ccncc3)cccc2C(=O)N([C@H](C)CO)C[C@@H]1C,1.6

# Going on with the list:
SMILES,A1 apoptosis 2
C[C@@H]1CN([C@H](C)CO)C(=O)CCCn2nncc2CO[C@H]1CN(C)C(=O)c1ccc2ccn(C)c2c1,-0.1
C[C@@H]1CN([C@@H](C)CO)C(=O)c2cccc(NC(=O)c3ccncc3)c2O[C@H]1CN(C)C(=O)Nc1ccccc1,-0.7
C[C@H]1CN([C@@H](C)CO)C(=O)c2cccc(NS(=O)(=O)c3ccc(Cl)cc3)c2O[C@H]1CN(C)Cc1ccc2c(c1)OCO2,2.1
C[C@H]1CN([C@@H](C)CO)C(=O)Cc2cc(NC(=O)Cc3cn(C)c4ccccc34)ccc2O[C@H]1CN(C)Cc1ccccc1,0.5
C[C@@H]1CCCCO[C@H](CN(C)C(=O)Nc2ccc(C(F)(F)F)cc2)[C@@H](C)CN([C@H](C)CO)C(=O)c2cc(NC(=O)CCC(F)(F)F)ccc2O1,1.5
Cc1noc(C)c1NC(=O)Nc1ccc2c(c1)C(=O)N([C@@H](C)CO)C[C@H](C)[C@@H](CN(C)C)OCCCC[C@H](C)O2,-1.1
C[C@H]1CN([C@@H](C)CO)C(=O)Cc2cc(NC(=O)Nc3ccc(C(F)(F)F)cc3)ccc2O[C@H]1CN(C)S(=O)(=O)c1cccs1,-0.6
C[C@@H]1CN([C@H](C)CO)C(=O)c2cc(NS(=O)(=O)c3ccccc3)ccc2O[C@@H](C)CCCCO[C@@H]1CN(C)C(=O)c1ccccc1,1.3
C[C@@H]1CCCCO[C@@H](CN(C)Cc2ccncc2)[C@H](C)CN([C@H](C)CO)C(=O)c2cc(NS(=O)(=O)c3ccccc3)ccc2O1,2.9
C[C@@H]1CN([C@H](C)CO)C(=O)c2cc(NC(=O)Nc3ccc(F)cc3)ccc2O[C@H]1CN(C)Cc1ccccc1,1.0
COc1ccc(S(=O)(=O)Nc2ccc3c(c2)C(=O)N([C@@H](C)CO)C[C@@H](C)[C@H](CN(C)C(=O)c2ccccc2)OCCCC[C@@H](C)O3)cc1,0.3
Cc1ccc(S(=O)(=O)Nc2cccc3c2O[C@H](CN(C)C(=O)Nc2ccc(F)cc2)[C@@H](C)CN([C@H](C)CO)C3=O)cc1,1.6
COc1ccc(S(=O)(=O)Nc2ccc3c(c2)C(=O)N([C@@H](C)CO)C[C@@H](C)[C@@H](CN(C)Cc2ccncc2)O3)cc1,0.1
C[C@H](CO)N1C[C@H](C)[C@@H](CN(C)Cc2ccncc2)Oc2ccc(NC(=O)CCN3CCOCC3)cc2C1=O,-1.3
C[C@@H]1CN([C@H](C)CO)C(=O)CCCn2nncc2CO[C@H]1CN(C)S(=O)(=O)c1ccc(-c2ccccc2)cc1,1.2
Cc1noc(C)c1NC(=O)N(C)C[C@@H]1Oc2c(NC(=O)CCCCCC(=O)Nc3ccccc3N)cccc2C(=O)N([C@H](C)CO)C[C@@H]1C,1.8
C[C@H]1CN([C@@H](C)CO)C(=O)c2cc(NS(=O)(=O)c3ccccc3)ccc2O[C@H]1CN(C)S(=O)(=O)c1ccc(Cl)cc1,1.5
C[C@H]1CCCCO[C@H](CN(C)C(=O)CCCN(C)C)[C@@H](C)CN([C@@H](C)CO)C(=O)c2cc(NS(C)(=O)=O)ccc2O1,1.5

# Some of the compounds tested. The share of hits here may be higher or lower than overall.
